Bfl-1 A1 inh – caspase 3/7 activation in MEF A1-2A-BIM cells, primary screen, A1 inhibitor project, cell-based, luminescence, HTS. Caspase-Glo 3/7 luminescence, 3 h; percent of clofoctol response, vehicle zero. caspase activation, % (test concentration not listed). 330,000 compounds, 0.066% hits;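 active means over half of replicate activation scores above 10%, or exactly half above 10 with the replicate mean above 10; inconclusive means replicate mean below 10 yet half the replicates above 10; inactive means over half of replicates below 10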;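 further: wells of about 30 µL received 50 nL stock; many hits fall short of the cut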
Beta apoptosis – inhibitors of cytokine-induced beta cell apoptosis, primary screen, luminescence. INS-1E cytokine-induced death, ATP luminescence, 48 h; percent of positive-control rescue, neutral wells zero. protection from apoptosis, % (no concentration beside the values). 300,000 compounds, 0.8% hits;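 active means all replicates at 75% or more, or half of them and the mean; inconclusive means half reach 75% but not the mean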;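 further: 0% = cytokine-treated negative control wells and 100% = positive control rescue; higher means more ATP so stronger rescue from cytokine killing; wells of about 40 µL received 100 nL stock; the first replicate is given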
LANA-H2B inh – blockers of LANA interaction with H2A/H2B – biochemical, FP readout, HTS, primary screen. AID 2629, 2010. Protein LANA1 (Human herpesvirus 8 type P (isolate GK18)), Q9QR71. cell-free LANA-H2A/H2B peptide, fluorescence polarization. 320,000 compounds, 0.6% hits. inhibition, % (no concentration beside the values); in the data active means inhibition mostly above about 10%, no sharp cut-off; inactive means mostly below about 6.7%;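 further: stock transfer was 7.5 nL into about 10 µL; 0% = median of vehicle wells and 100% = median of positive control wells; one replicate is shown; the record names a cut of 25% in any replicate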
Calb FLC – C. albicans growth inhibition with fluconazole, primary screen, CaCi-2 strain, Alamar Blue fluorescence | C. albicans CaCi-2 (fluconazole-resistant clinical isolate) + fluconazole, 48 h | growth inhibition, % (concentration not given with the values) | 300,000 compounds, 0.57% hits | AID 1979, 2009;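 active means most replicates above 75%; inconclusive means exactly half above 75%; inactive means most below 75%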;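 further: all wells also contain fluconazole at 8 µg/ml as a sub-toxic cotreatment; 0% = median of DMSO wells and 100% = median of geldanamycin control wells; wells of about 8 µL received 7.5 nL stock; the first replicate is given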
T cruzi repl – inhibitors of intracellular T. cruzi growth, primary screen, luminescence, NIH3T3 host cells. T. cruzi beta-gal in NIH3T3, 90 h. inhibition, % (no concentration beside the values). 300,000 compounds, 1.4% hits;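 active means mean inhibition across valid replicates above about 55%, limit read from the data; inconclusive means mean below that limit but half or more replicates reach it; inactive means mean below it, under half of replicates reach it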;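 further: signal also drops with host cell toxicity which is not excluded here; 0% = plate median of DMSO wells and 100% = zero luminescence signal; higher percent means less beta-gal luminescence so fewer parasites; stock transfer was 50 nL into about 50 µL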
Beta2AR agonist – beta2AR agonists driving receptor internalization, primary screen, cell-based, FAP fluorogen, flow cytometry | Beta-2 adrenergic receptor (Homo sapiens), P07550 | Am2.2-beta2AR cells; reference of the scale not given here | response, % (test concentration not listed) | 340,000 compounds, 0.43% hits;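 active means response above a set limit, near 3 SD of response in nonfluorescent compounds, cut at about 42% in these data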;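 further: stock transfer was 100 nL into about 11 µL; a reference agonist was the positive control; negative values mostly stem from fluorescent compounds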
Target sequence (P07550 whole entry, looked up): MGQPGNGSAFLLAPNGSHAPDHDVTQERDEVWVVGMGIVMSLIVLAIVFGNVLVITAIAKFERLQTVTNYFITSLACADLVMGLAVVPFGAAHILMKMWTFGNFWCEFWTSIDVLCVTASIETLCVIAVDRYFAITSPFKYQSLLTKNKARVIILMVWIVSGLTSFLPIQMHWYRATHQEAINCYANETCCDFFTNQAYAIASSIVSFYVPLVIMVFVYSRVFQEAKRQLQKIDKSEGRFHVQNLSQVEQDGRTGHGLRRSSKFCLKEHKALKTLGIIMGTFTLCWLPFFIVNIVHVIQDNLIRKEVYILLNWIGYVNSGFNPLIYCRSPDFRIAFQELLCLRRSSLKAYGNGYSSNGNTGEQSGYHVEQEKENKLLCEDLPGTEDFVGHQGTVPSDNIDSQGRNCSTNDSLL
RanGTP-Imp inh – inhibitors of RanGTP-importin-beta interaction, primary screen, biochemical, FRET, CFP-Ran, YFP-importin-beta, homogeneous | Ran GTPase (GTP-bound) - importin-beta complex | cell-free CFP-Ran/YFP-importin-beta FRET ratio | inhibition, % (test concentration not listed) | 300,000 compounds, 1.1% hits | AID 2216, 2009;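 active means most replicates above 15%; inconclusive means exactly half above 15%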;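 further: 0% = DMSO wells and 100% = Ran loaded with GDP instead of GTP; wells of about 40 µL received 100 nL stock; the first replicate is given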
UCH37 inh – inhibitors of human UCH37 deubiquitinase, primary screen, biochemical, Ub-AMC cleavage, fluorescence | Ubiquitin carboxyl-terminal hydrolase isozyme L5 (Homo sapiens), Q9Y5K5 | purified proteasome/UCH37 | inhibition, % (test concentration not listed) | 330,000 compounds, 0.33% hits | AID 588478, 2011;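 active means mean of two replicates above 20%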;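 further: 0% = compound-free wells with enzyme and 100% = wells lacking proteasome; stock transfer was 100 nL into about 20 µL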
Target sequence (Q9Y5K5 whole entry, looked up): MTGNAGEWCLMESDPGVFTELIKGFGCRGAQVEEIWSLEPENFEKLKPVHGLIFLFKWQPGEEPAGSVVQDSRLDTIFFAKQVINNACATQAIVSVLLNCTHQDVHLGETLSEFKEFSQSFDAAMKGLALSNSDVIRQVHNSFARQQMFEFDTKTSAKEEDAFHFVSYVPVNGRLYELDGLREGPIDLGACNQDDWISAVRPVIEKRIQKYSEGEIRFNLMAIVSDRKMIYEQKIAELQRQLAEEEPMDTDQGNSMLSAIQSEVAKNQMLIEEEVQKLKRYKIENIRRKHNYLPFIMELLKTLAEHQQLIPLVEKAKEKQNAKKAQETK
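Reagent: Ub-AMC substrate; assay system: Proteasome-associated human UCH37 deubiquitinase; controls: no-proteasome and no-compound wells; read-out: % inhibition of Ub-AMC cleavage fluorescence; timing: 30 min preincubation with enzyme, 25 min cleavage at room temperature; signal: AMC fluorescence from Ub-AMC cleavage, excitation 355 nm, emission 460 nm; buffer or medium: Tris-HCl pH 7.4 plus ovalbumin, ATP-MgCl2, DTT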
The depositor's hits bear a star; i = inactive; u = inconclusive; x = no result given.

compound | T cruzi repl | Beta apoptosis | Calb FLC | Beta2AR agonist | Bfl-1 A1 inh | UCH37 inh | LANA-H2B inh | RanGTP-Imp inh
CN(C)S(=O)(=O)c1ccc(C(=O)OCC(=O)NC(=O)NCc2ccccc2)cc1 | -7.6 | -3.0 | -4.7 | 1.6 | 0.5 | 1.7 | -1.5 | -2.0
CCc1c(O)nc(SCC(=O)Nc2ccc(Br)cc2)n(-c2ccc(C)cc2)c1=O | 5.0 | -9.6 | -5.0 | 3.3 | 0.5 | 3.2 | 3.7 | 2.6
COc1ccc(CNC(=O)C2CCN(S(C)(=O)=O)CC2)cc1 | -11.7 | 1.7 | 4.2 | -1.0 | -0.6 | 1.3 | -1.6 | 3.2
Cc1csc(SCC(=O)NCCc2ccc(Cl)cc2Cl)n1 | 1.7 | 0.7 | 2.7 | -4.6 | -0.3 | 2.9 | 0.9 | 1.8
COc1ccc(C(CCNC(C)c2ccccc2)C(C)C)cc1 (stereo not given) | 42.7 | 6.4 | -3.6 | -0.8 | 0.7 | 5.5 | 3.7 | 1.2
COc1ccccc1CC(=O)N1CCN(c2ccc(F)cc2)CC1 | 16.0 | -3.3 | -6.4 | -0.6 | 0.4 | -0.7 | -0.2 | 1.6
CCOc1ccccc1OCC(=O)Nc1cc(S(=O)(=O)N2CCCCC2)ccc1OC | 8.2 | 2.6 | 1.6 | 6.1 | -1.0 | -0.9 | 0.5 | 1.6
O=C(CCNC(=O)c1ccc([N+](=O)[O-])cc1)Nc1ccc(N2CCOCC2)cc1N1CCOCC1 | -2.1 | -1.0 | 12.6 | 3.3 | 0.1 | 4.4 | -2.1 | -0.1
COC(=O)NNC(=O)COc1ccc(Br)c(C)c1 | -6.1 | -0.6 | 7.9 | 5.6 | -0.3 | 0.3 | -14.9 | u
Cn1ccnc1Sc1ccc(C=O)cc1[N+](=O)[O-] | 0.5 | 3.6 | -1.2 | 2.0 | -0.1 | 2.7 | 0.7 | 1.9
Cc1ccc(CNC(=O)c2nnn(-c3cccc(C)c3)c2N)cc1 | 7.5 | -9.8 | -4.5 | -2.1 | 0.6 | 2.1 | 0.7 | 2.3
CN(C(=O)c1cc2c(=O)n3ccccc3nc2n1C)C1CCCCC1 | 12.7 | -6.3 | -2.0 | 3.2 | 0.5 | i | -1.6 | 1.8
CCOc1ncccc1C(=O)N1CCCSC1=Nc1ccc(C(C)=O)cc1 | -2.4 | -9.8 | 11.1 | -11.2 | 0.7 | 3.1 | -2.1 | -1.0
CCc1ccccc1NC(=O)Cc1cn(C)c2ccccc12 | 8.9 | 1.6 | -3.7 | -0.6 | 0.5 | 4.8 | 0.0 | 3.9
CN(c1ccccc1C(=O)Nc1ccc2c(c1)n(C)c(=O)n2C)S(C)(=O)=O | -2.9 | -2.8 | 1.4 | 4.2 | 0.5 | 1.8 | 1.0 | -0.4
CC(=O)NCCC(=O)Nc1ccc(F)cc1C | -9.2 | -3.3 | -2.7 | -0.5 | -0.5 | 5.3 | -0.9 | 0.7
O=C(Nc1c2c(nn1-c1ccc(Cl)cc1)CS(=O)(=O)C2)c1ccc2c(c1)OCO2 | -4.9 | -2.6 | 2.3 | 1.7 | 0.5 | 2.4 | 0.6 | 8.8
O=C(Nc1ccccn1)NC1CCS(=O)(=O)C1 (stereo not given) | 2.0 | 2.7 | u | 1.9 | -0.4 | 5.6 | 1.9 | 0.5
N#Cc1ccc(Cl)cc1NC(=O)COC(=O)c1ccc(S(=O)(=O)N2CCCC2)cc1 | -3.8 | -10.4 | -4.0 | -7.3 | 0.2 | -2.1 | 2.0 | -0.4
CCCCOc1ccc(N(CC(=O)NCC2CCCO2)C(=O)CCC(=O)Nc2nccs2)cc1 (stereo not given) | 32.5 | -6.2 | 5.2 | -17.0 | 0.3 | 0.4 | 0.7 | -1.7

Continued, starting with the last 5 of the part before.
compound | T cruzi repl | Beta apoptosis | Calb FLC | Beta2AR agonist | Bfl-1 A1 inh | UCH37 inh | LANA-H2B inh | RanGTP-Imp inh
CC(=O)NCCC(=O)Nc1ccc(F)cc1C | -9.2 | -3.3 | -2.7 | -0.5 | -0.5 | 5.3 | -0.9 | 0.7
O=C(Nc1c2c(nn1-c1ccc(Cl)cc1)CS(=O)(=O)C2)c1ccc2c(c1)OCO2 | -4.9 | -2.6 | 2.3 | 1.7 | 0.5 | 2.4 | 0.6 | 8.8
O=C(Nc1ccccn1)NC1CCS(=O)(=O)C1 (stereo not given) | 2.0 | 2.7 | u | 1.9 | -0.4 | 5.6 | 1.9 | 0.5
N#Cc1ccc(Cl)cc1NC(=O)COC(=O)c1ccc(S(=O)(=O)N2CCCC2)cc1 | -3.8 | -10.4 | -4.0 | -7.3 | 0.2 | -2.1 | 2.0 | -0.4
CCCCOc1ccc(N(CC(=O)NCC2CCCO2)C(=O)CCC(=O)Nc2nccs2)cc1 (stereo not given) | 32.5 | -6.2 | 5.2 | -17.0 | 0.3 | 0.4 | 0.7 | -1.7
O=C(N/N=C\C=C\c1ccc2c(c1)OCO2)c1ccc(F)cc1 | -10.2 | 2.3 | 15.6 | 3.4 | -0.5 | x | 5.6 | 0.4
CCCn1c(C)cc(C(=O)COc2ncnc3sccc23)c1C | 0.9 | 6.7 | -3.7 | 2.8 | 0.6 | 0.1 | 5.6 | -0.1
CCN1CCCC1CNc1ccc(S(C)(=O)=O)cc1[N+](=O)[O-] (stereo not given) | 39.7 | -0.3 | 2.7 | 8.3 | 0.3 | 3.8 | -9.3 | -2.5
CC1CN(S(=O)(=O)c2ccc(C(=O)Nc3sccc3C(N)=O)cc2)CC(C)O1 (stereo not given) | -16.4 | 1.8 | -5.9 | -4.0 | -0.3 | -382.8 | -1.3 | 2.0
CC[C@@]1(c2ccccc2OC)C(=O)N(C(=O)OC)N1C(=O)OC | 1.1 | 5.0 | -7.1 | 7.0 | -0.3 | 4.2 | 5.4 | -1.1
COc1ccc(OC)c(NC(=O)c2ccc3c(c2)C(=O)N(CC2CCCO2)C3=O)c1 (stereo not given) | -2.9 | -1.4 | -9.7 | -1.9 | -1.2 | 1.9 | 1.3 | 4.5
CN1N=C2c3ccccc3CCC2C1c1ccc(F)cc1 (stereo not given) | -9.0 | x | -2.7 | 0.7 | 0.0 | -8.7 | 2.5 | 2.6
Fc1cccc(NC(=S)N2CCn3cccc3C2c2cccnc2)c1 (stereo not given) | 63.3* | -1.6 | 0.2 | -1.1 | 0.5 | 1.2 | 2.7 | -1.4
CC1=CC(C)(C)NC(=S)N1c1ccccc1 | -34.6 | -7.7 | 1.5 | 4.3 | 0.1 | 5.3 | -4.6 | 5.2
COc1ccc(CN(CC(=O)NCCC(C)C)C(=O)CCC(=O)Nc2nccs2)cc1 | -3.4 | -2.8 | -2.6 | 0.6 | 0.2 | 1.3 | -6.6 | 1.0
FC(F)(F)c1nc(N2CCCC2)ncc1-c1nnnn1-c1ccccc1 | 8.7 | 21.3 | 4.0 | -2.7 | -0.9 | -0.8 | -4.7 | -2.7
CC(C)(C)C(=O)NCCCNc1ccc([N+](=O)[O-])cc1 | -1.2 | -7.0 | u | -6.9 | -0.5 | 8.3 | -10.3 | 0.7

Complete entries, looked up by structure. Screens in order: T cruzi repl	Beta apoptosis	Calb FLC	Beta2AR agonist	Bfl-1 A1 inh	UCH37 inh	LANA-H2B inh	RanGTP-Imp inh
Entry for CCCn1c(C)cc(C(=O)COc2ncnc3sccc23)c1C = 0.9	6.7	-3.7	2.8	0.6	0.1	5.6	-0.1
Entry for COc1ccc(CN(CC(=O)NCCC(C)C)C(=O)CCC(=O)Nc2nccs2)cc1 = -3.4	-2.8	-2.6	0.6	0.2	1.3	-6.6	1.0
Entry for CN1N=C2c3ccccc3CCC2C1c1ccc(F)cc1 (stereo not given) = -9.0	x	-2.7	0.7	0.0	-8.7	2.5	2.6
Entry for Fc1cccc(NC(=S)N2CCn3cccc3C2c2cccnc2)c1 (stereo not given) = 63.3*	-1.6	0.2	-1.1	0.5	1.2	2.7	-1.4

Source: PubChem BioAssay
